Cruzain inh noDet = inhibitors of Trypanosoma cruzi cruzain without detergent; P25779; purified cruzain, Z-FR-AMC fluorescence, no detergent; Potency, µM, without a hit: max response, negative = inhibition, hits mostly inhibitors; 200,000 tested, 2.3% active; AID 1476;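 also: plate controls were enzyme without inhibitor for no effect and buffer without enzyme for full effect; nearly all actives have a fitted effect of over 40% in size; top concentration of the series not given in the record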
Target sequence (P25779 123-467 limits assumed): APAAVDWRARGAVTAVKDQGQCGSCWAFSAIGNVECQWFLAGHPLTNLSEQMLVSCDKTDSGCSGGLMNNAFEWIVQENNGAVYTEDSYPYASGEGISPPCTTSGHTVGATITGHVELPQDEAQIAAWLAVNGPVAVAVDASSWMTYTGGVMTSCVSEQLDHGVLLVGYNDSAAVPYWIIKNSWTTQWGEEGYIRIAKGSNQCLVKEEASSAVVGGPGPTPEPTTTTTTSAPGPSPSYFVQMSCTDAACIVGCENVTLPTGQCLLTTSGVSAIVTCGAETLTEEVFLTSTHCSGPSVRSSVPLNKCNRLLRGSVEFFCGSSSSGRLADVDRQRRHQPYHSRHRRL
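Purified cruzain at 1.5 nM, pre-incubated 15 min with compound at room temperature in 100 mM sodium acetate pH 5.5, 5 mM DTT, 0.00005% Triton X-100. Reaction started with 2 uM Z-FR-AMC; AMC fluorescence increase over 60 s gives rate.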
Marburg entry inh = Marburg virus entry inhibition. 300,000 tested, 1.8% active. Potency, µM (series often up to 37.8 µM), for inactives: at the top dose activity change, negative = inhibition, usual class: inhibitors. Marburg virus pseudotyped entry inhibition, cell reporter; control for the full effect not named in the record; about a third of the inactives were read at about 46 µM; active = well fitted inhibition curve with a large enough effect; inconclusive = small, poorly fitted or top-dose-only effect, or effect the other way; inactive = flat fitted curve, though single readings scatter; tested in HEK293 cells; about a fifth of its hits are not listed in these tables; also: % is scaled to controls: 0 for no effect and ±100 for the full control effect; luciferase read-out
Lassa entry inh = inhibitors of Lassa virus binding or cell entry | Lassa virus pseudotype entry inhibition, cell reporter; control for the full effect not named in the record | AID 540256 | Potency, µM (doses to about 37.9 µM), for the others: top-dose activity change, negative = inhibition, most hits filed as inhibitors | 300,000 tested, 1.2% active; active means well fitted inhibition curve with a large enough effect; inconclusive means small, poorly fitted or top-dose-only effect, or effect the other way; inactive means flat fitted curve, though single readings scatter; tested in HEK293 cells; also: % is scaled to controls: 0 for no effect and ±100 for the full control effect; nearly all actives have a fitted effect of over 50% in size; luciferase read-out
NS1 inh = inhibitors of influenza NS1 protein function; S. cerevisiae slowed by influenza A NS1, growth recovery by OD600; Potency, µM (top dose mostly 46.1 µM), without a hit: top-dose activity, positive = more growth; 270,000 tested, 0.4% active; active means well fitted rising curve with a large enough effect; inconclusive means small, poorly fitted or top-dose-only effect; inactive means no such curve, though single readings can be large or run the other way; also: nearly all actives have a fitted effect of over 50% in size
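A cell-based growth assay was used: compounds that relieve NS1-induced slow growth of budding yeast raise OD600. Assay medium was yeast nitrogen base with ammonium sulphate and -URA supplement, pH 6.0, with 2% galactose.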
StopGo reporter = FMDV 2A StopGo reporter, luciferase signal; 410,000 tested, 1.2% active; Potency, µM (doses to about 57.9 µM), for the others: at the highest dose signal change, negative = less light; AID 1159524; human cells with a luciferase reporter of 2A StopGo recoding; control for the full effect not named in the record; active = well fitted falling curve with a large enough effect; inconclusive = small, poorly fitted or top-dose-only effect; inactive = no such curve, though single readings can be large or run the other way; tested in HEK293T cells; also: % is scaled to controls: 0 for no effect and ±100 for the full control effect; nearly all actives have a fitted effect of over 45% in size; luciferase light after 4 h
Cruzain Triton = inhibitors of Trypanosoma cruzi cruzain with detergent. purified cruzain, Z-FR-AMC fluorescence, 0.01% Triton. 200,000 tested, 0.43% active. Potency, µM, for inactives: max response, negative = inhibition, actives largely listed as inhibitors. AID 1478. P25779;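 also: plate controls were neutral wells for no effect and buffer without enzyme for full effect; nearly all actives have a fitted effect of over 40% in size; top concentration of the series not given in the record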
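15 min RT preincubation of 1.5 nM cruzain with compound, then 2 uM Z-FR-AMC added; kinetic AMC fluorescence, 60 s delta. Triton X-100 0.01%, pH 5.5.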
RE007 growth inh = less growth of the S. pombe RE007 Vpr strain. Potency, µM (highest dose often 92.2 µM), for the others: at the highest dose activity change, negative = less growth. 360,000 tested, 0.21% active. S. pombe RE007 Vpr strain, BacTiter-Glo ATP luminescence, 24 h; control for the full effect not named in the record; active = well fitted falling curve with a large enough effect; inconclusive = small, poorly fitted or top-dose-only effect; inactive = no such curve, though single readings can be large or run the other way;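 also: % is scaled to controls: 0 for no effect and ±100 for the full control effect; nearly all actives have a fitted effect of over 50% in size; the assay follows cell death caused by Vpr and the record does not say whether a fall means rescue or toxicity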
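Fission yeast strain RE007, carrying one chromosomally integrated HIV-1 vpr copy, was seeded at OD 0.01 in PMG+AL medium with 23 nL pinned compound. After 24 h at 30 °C and 99% humidity, viability was read by BacTiter-Glo luminescence.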
SARS PLP yeast = inhibitors of SARS-CoV papain-like protease in yeast. S. cerevisiae expressing SARS-CoV PLpro, growth rescue; control for the full effect not named in the record. Potency, µM (highest dose often 32.9 µM), inactives show at the top dose activity, positive = growth rescue. 330,000 tested, 0.19% active; active means well fitted rising curve with a large enough effect; inconclusive means small, poorly fitted or top-dose-only effect; inactive means no such curve, though single readings can be large or run the other way; also: 0% is about no effect; nearly all actives have a fitted effect of over 55% in size; growth read by luminescence after 48 h
An asterisk follows results filed as active; ? = inconclusive; . = no result given; [ ] = remark or other dose. Unless noted, calls follow the shape of the dose curve; as a rule, active = well fitted curve in the direction sought with a large enough effect; inconclusive = small, poorly fitted or top-dose-only effect, or another doubt; inactive = no such curve, though single readings can be large; an effect the other way counts as inactive or inconclusive. Potency is read from the fitted curve at half-maximal effect.

Each structure is followed by: Marburg entry inh | SARS PLP yeast | Cruzain Triton | NS1 inh | Cruzain inh noDet | StopGo reporter | Lassa entry inh | RE007 growth inh
(1) CC(C)=CCC/C(C)=C/CCC(C)NCCN1CCNCC1 (stereo unspecified)
    -4.2% | 0.2% | -1.7% | 3.5% | 14.6% | . | . | .
(2) Cc1ccc(NC(=O)C2=CCN(S(=O)(=O)c3ccc(F)cc3)CC2)cc1
    2.3% | 2.6% | -4.6% | -6.3% | -11.0% | -23.5% | -12.6% | -7.2%
(3) CCc1ccc(-n2c(=O)c3cccnc3n2CC(=O)Nc2cc(F)ccc2F)cc1
    . | . | -6.9% | . | -8.9% | -4.7% | ? | .
(4) CC1(C)NCCN2C(=O)CSC21 (stereo unspecified)
    15.8%[46.1 µM] | 17.3% | -1.7% | 2.2% | -5.4% | 3.2% | -25.0% | -12.7%
(5) COc1ccccc1CNC(=O)COC(=O)CSc1ccc(F)cc1
    19.1% | 0.3% | . | . | . | -9.0% | -28.3% | 1.2%
(6) Cc1ccc(-c2cn(-c3ccc(SC(F)F)cc3)c3[n+]2CCC3)cc1
    ? | -12.7% | -7.9% | 1.9% | -1.7% | ? | -23.7% | -13.8%
(7) CC1=NN(c2ccccc2)C(=O)/C1=C/c1ccc[nH]1
    ? | 4.9% | -10.9% | 9.2% | -1.4% | 0.0% | ? | -10.6%
(8) CCCC[C@H]1COCCS(=O)(=O)N1Cc1ccc(C)cc1
    . | 0.3% | . | -15.9% | . | -14.7% | . | -21.7%
(9) COc1ccc(CCNc2ccc(C(CC(N)=O)NC(=O)c3cc(OC)ccc3OC)cc2[N+](=O)[O-])cc1 (stereo unspecified)
    . | 1.8% | . | 29.5% | . | -23.7% | . | -1.2%
(10) Cc1ccccc1CSc1ccc2nnc(-c3ccccn3)n2n1
    -4.2%[46.1 µM] | 1.3% | . | . | . | ? | . | -9.7%
(11) COc1ccccc1N(CC(O)CN1CCC(C)CC1)S(=O)(=O)c1ccccc1 (stereo unspecified)
    ? | -1.1% | . | -0.2% | . | 24.3% | -16.9%[46.1 µM] | -5.7%
(12) CC1CCCC(C)N1C(=O)COC(=O)Cc1ccc(Cl)cc1 (stereo unspecified)
    . | 1.3% | . | -1.3% | . | -18.9% | . | 5.7%
(13) Oc1ccc(N=Cc2ccc(-c3cccs3)s2)cc1
    ? | 2.1% | 2.3% | -85.9% | 3.3% | 2.7% | ? | -7.9%
(14) O=C(CCC(=O)Nc1cccc2ccccc12)N/N=C/c1ccco1
    12.4% | -1.6% | -0.9% | 14.7% | 0.7% | -7.5% | 16.0% | 4.3%
(15) O=C(Nc1cc(C(=O)N2CCCC2)ccc1N1CCCC1)c1ccccc1F
    -26.2% | -3.6% | -5.2% | -9.8% | -16.7% | 12.0% | -19.5% | 4.0%
(16) O=C(O)CCc1ccc(-c2ccc(F)cc2)n1CCC(=O)O
    13.5% | 4.3% | -2.0% | 8.8% | -6.6% | . | -16.0% | 1.0%
(17) CCCCN(CC)C(=O)Cn1c(=O)n(-c2ccc(OCC)cc2)c(=O)c2c3c(sc21)CCCC3
    ? | . | -1.9% | . | -15.7% | -19.6% | -26.2%[46.1 µM] | .
(18) COC(=O)c1ccc(NCc2cc(O)ccc2O)cc1O
    ? | . | . | . | . | ? | 20µM* | -9.8%
(19) COc1ccc(Cl)cc1NC(=O)N1CCN(CCc2ccccc2)CC1
    5.0% | -1.0% | 3.8% | -12.5% | 0.9% | -8.9% | -10.9% | 9.4%
(20) Cc1ccc(NS(=O)(=O)c2ccc3[nH]c(=O)[nH]c3c2)cc1
    . | ? | . | -4.1% | . | 9.5% | . | 1.6%
(21) Cc1cc(=O)n(C)c2ccccc12
    4.7%[46.1 µM] | 0.1% | . | 6.2% | . | 4.8% | 17.2%[46.1 µM] | 1.2%
(22) COc1ccc(OCC(O)CN(C)C(=O)/C=C/c2cccc([N+](=O)[O-])c2)cc1 (stereo unspecified)
    0.2%[46.1 µM] | -0.9% | . | -6.3% | . | -23.5% | 7.0% | -9.0%
(23) COc1ccc(CNc2nc(C)cc(C)c2C#N)cc1
    12.4% | -4.3% | . | -24.6% | . | -16.7% | -0.1% | 18.4%
(24) Nc1nc(SCCN2C(=O)c3ccccc3C2=O)n[nH]1
    -15.2% | -11.0% | -4.1% | 3.5% | -2.6% | -8.1% | -3.9% | 0.0%
(25) Fc1ccc(C(c2nnnn2C2CCCC2)N2CCN(Cc3ccccc3)CC2)cc1 (stereo unspecified)
    ? | 1.1% | -2.3% | 3.8% | 3.9% | 10.2% | -26.8% | -3.7%
(26) CC(=O)c1ccccc1OC(=O)c1ccc([N+](=O)[O-])o1
    30.5% | 0.3% | . | -33.5% | . | -4.5% | 3.3% | -9.1%
(27) CCNC(=O)O/N=C(\C)c1sc(-c2ccccc2)nc1C
    ? | -2.2% | -4.7% | 0.3% | -8.1% | -7.9% | -15.3% | ?
(28) COc1cc(C(=O)NCCOc2ccc(Cl)cc2)ccc1OCc1c(C)noc1C
    -24.5% | -0.4% | . | . | . | -8.4% | ? | -7.2%
(29) O=C1CC(c2ccccc2)CC(=O)N1c1ccccc1
    . | 0.4% | . | 1.2% | . | -7.7% | . | -3.2%
(30) COC(=O)C1=C(C)N(CCCC(=O)O)C(=O)NC1c1ccc(C(F)(F)F)cc1 (stereo unspecified)
    . | 3.9% | . | 5.3% | . | -11.3% | . | 12.7%
(31) COc1ccc(S(=O)(=O)Nc2cccnc2)c(C)c1C
    10.4%[46.1 µM] | 1.8% | . | 3.9% | . | 41.3%[activator] | 0.9%[46.1 µM] | 11.7%
(32) COC(=O)c1ccccc1NC(=O)C1CCCC1
    0.0% | 1.8% | -0.8% | -5.1% | 14.9% | -9.5% | 0.8% | ?
(33) O=C(CC1Sc2ccccc2NC1=O)NNc1ccc(Cl)cc1Cl (stereo unspecified)
    ? | . | . | . | . | -8.6% | -26.7%[46.1 µM] | 46.8%
(34) COC(=O)C(C)N1C(=O)S/C(=C/c2cc(C)n(C(C)C)c2C)C1=O (stereo unspecified)
    ? | 5.4% | -5.6% | 6.7% | 19.1% | -22.6% | -26.9% | 5.4%
(35) COc1ccc(C(=O)OCC(=O)N2CCCCC2)cc1[N+](=O)[O-]
    10.1%[46.1 µM] | 1.7% | . | 0.8% | . | 0.3% | 3.9%[46.1 µM] | -11.6%
(36) CC(=O)c1nccs1
    . | -4.8% | 2.4% | . | -5.7% | 0.0% | . | -5.5%
(37) COC(=O)c1[nH]c(C)c(/C(O)=C2\C(=O)C(=O)N(CCN(C)C)C2c2ccccc2OC)c1C (stereo unspecified)
    9.5% | -0.5% | -3.8% | -2.4% | -6.5% | 15.0% | -30.5% | 6.2%
(38) O=C1CC(c2nc3ccccc3[nH]2)CN1c1ccccc1 (stereo unspecified)
    20.9% | 1.6% | 1.1% | 10.6% | 1.1% | 7.7% | 0.0% | 6.8%
(39) O=C(CSc1nc2c([nH]c3ccccc32)c(=O)n1-c1ccccc1)N1CCc2ccccc21
    . | . | -0.5% | . | -2.3% | -6.8% | -11.7%[46.1 µM] | .
(40) Cc1ccc(C(=O)CN(C(=O)c2ccc(Cl)cc2)N2C(=O)CCC2=O)cc1
    5.2%[46.1 µM] | -0.5% | . | . | . | -0.5% | . | 3.8%
(41) O=C(c1cc2cc(Br)ccc2o1)N1CCOCC1
    -15.6% | -1.2% | . | -3.7% | . | 0.0% | -18.5% | -1.8%
(42) C[C@]12CCCCC1=CC(=O)C1C2CC[C@@]2(C)C1C[C@@H](F)[C@@H]2O (stereo partly specified)
    -18.9%[46.1 µM] | . | . | . | . | -17.6% | 13.0%[46.1 µM] | -6.8%
(43) CC1CCc2c(sc(NC(=O)CSc3nnc(-c4ccccc4)o3)c2C#N)C1 (stereo unspecified)
    ? | 5.6% | -2.4% | 11.4% | ? | -18.9% | ? | .
(44) CCCCn1cc(C(C)(C)C)c(C#N)c1NC(C)=O
    . | -2.1% | 4.5% | -1.2% | -3.0% | -5.7% | . | 6.5%
(45) C/C(=N/N=C(/N)SCc1ccccc1)C(C)(C)C
    1.5% | 0.8% | . | -0.9% | . | 60.8%[activator] | 2.4% | -6.6%
(46) CCOc1ccccc1C(C(=O)NCCOC)N(CCOC)C(=O)Cn1nnc2ccccc21 (stereo unspecified)
    1.6%[46.1 µM] | 2.1% | . | -3.4% | . | 18.8% | 0.4% | -7.2%
(47) COc1ccc(Cl)cc1C(=O)NCCN1CCOCC1
    . | 5.2% | . | 2.3% | . | -9.1% | . | 11.9%
(48) COC(=O)Cn1cnc2c(Cl)nc(F)nc21
    0.6% | 2.5% | . | . | . | ? | . | 1.3%
(49) Nc1cc(=O)[nH]n1C1CCN(c2ccccc2)CC1
    ? | 17.5% | 2.6% | 14.1µM* | -6.7% | 10.2% | -14.7% | 21.2%
(50) COc1ccc(/C=N/Nc2nc(-c3ccc(C)cc3)c(C#N)c(=O)[nH]2)cc1
    -0.7% | -2.3% | . | -3.8% | . | -3.0% | -27.1% | -2.5%
(51) COC(=O)C1=C(C)OC(N)=C(C#N)C1c1ccc(OC)c(CSc2ccccn2)c1 (stereo unspecified)
    -10.7% | -4.6% | -1.4% | -19.2% | -1.6% | -21.8% | -12.2% | 0.6%
(52) O=C(NCCOc1cccnc1)C1CCC(=O)N(Cc2ccccc2F)C1 (stereo unspecified)
    . | -0.1% | . | 0.0% | . | 0.6% | . | -0.8%
(53) CCOc1cc(S(=O)(=O)Nc2ccc(Cl)cn2)ccc1F
    2.5% | -15.0% | -4.1% | -3.8% | -2.1% | 52.7%[activator] | 7.0% | 10.3%
(54) CC1CCN(C(=O)CCNS(=O)(=O)c2ccc3c(c2)oc(=O)n3C)CC1
    . | -7.6% | . | -6.4% | . | -18.3% | . | 0.4%
(55) COCCCNC(=O)CSC1=Nc2ccccc2C2=NC(CCC(=O)NCc3ccc(OC)cc3)C(=O)N12 (stereo unspecified)
    . | . | 2.7% | . | 8.4% | -14.0% | -4.9%[46.1 µM] | .
(56) COc1ccc(CCN(C)C(=O)c2cc(S(=O)(=O)NCc3ccccc3)ccc2C)cc1OC
    ? | -1.6% | . | . | . | -11.3% | -1.2% | -1.4%

Screens: PubChem BioAssay, National Center for Advancing Translational Sciences (NCATS)
